# Screening results (PubChem BioAssay)
# eIF4H inh: inhibitors of RNA binding by human eIF4H. eIF4H fluorescence polarization binding assay. AID 2012. inhibition, % at 35 µM. actives 0.94% (n = 290,000). Q15056;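 active = 50% or more with normal probe brightness, or confirmed in later tests; about a fifth of its hits are not listed in these tables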;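 also: calls also rest on retests at 20 µM and on dose response follow-up; 0% = protein and probe with vehicle and 100% = probe without protein; strong numbers were not always called active; many hits fall short of the cut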
# Rce1 inh: yeast Ras-converting enzyme inhibition; Q03530; yeast membranes, quenched prenylated peptide cleavage fluorescence; calls only; actives 0.27% (n = 290,000);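 active = fall in fluorescence gain of 50% or more versus controls, with final raw signal at or below 3038400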;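 also: plate controls were neutral control wells for no effect and wells lacking membranes for full effect; tested at 10 µM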
# UUG fidelity: alters start codon recognition fidelity in yeast; S. cerevisiae UUG-firefly luciferase reporter, luminescence/redox ratio; activity score, % at 18.7 µM; actives 0.13% (n = 350,000);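 active = replicate mean at a twofold rise or more, about +100% in these data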;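 also: firefly luciferase made from a UUG start codon reports start codon fidelity; reporter light over untreated wells divided by growth signal over untreated wells; some hits fall short of that in this replicate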
# HIV Env fusion: inhibitors of HIV Env-mediated cell fusion. HeLa-JRFL Env/CEM21 cell fusion, luciferase. inhibition, % at 12.3 µM. actives 1.1% (n = 360,000). AID 651610;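 active = mean replicate inhibition score of at least 50 and every replicate individually at or above 50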;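 also: 0% = plate neutral controls and 100% = maraviroc near 300 nM; one replicate is shown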
# PABP polyA inh: blocks human PABP binding to poly(A) RNA; actives 1% (n = 290,000); fluorescence polarization; AID 2014; inhibition, % at 35 µM;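 active = 50% or more with normal probe brightness, or confirmed in later tests; about a fifth of its hits are not listed in these tables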;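 also: calls also rest on retests at 20 µM and on dose response follow-up; controls were probe without protein and protein plus probe with vehicle; some compounds called inactive have numbers as strong as hits; many hits fall short of the cut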
# Target sequence (P11940 whole entry, looked up): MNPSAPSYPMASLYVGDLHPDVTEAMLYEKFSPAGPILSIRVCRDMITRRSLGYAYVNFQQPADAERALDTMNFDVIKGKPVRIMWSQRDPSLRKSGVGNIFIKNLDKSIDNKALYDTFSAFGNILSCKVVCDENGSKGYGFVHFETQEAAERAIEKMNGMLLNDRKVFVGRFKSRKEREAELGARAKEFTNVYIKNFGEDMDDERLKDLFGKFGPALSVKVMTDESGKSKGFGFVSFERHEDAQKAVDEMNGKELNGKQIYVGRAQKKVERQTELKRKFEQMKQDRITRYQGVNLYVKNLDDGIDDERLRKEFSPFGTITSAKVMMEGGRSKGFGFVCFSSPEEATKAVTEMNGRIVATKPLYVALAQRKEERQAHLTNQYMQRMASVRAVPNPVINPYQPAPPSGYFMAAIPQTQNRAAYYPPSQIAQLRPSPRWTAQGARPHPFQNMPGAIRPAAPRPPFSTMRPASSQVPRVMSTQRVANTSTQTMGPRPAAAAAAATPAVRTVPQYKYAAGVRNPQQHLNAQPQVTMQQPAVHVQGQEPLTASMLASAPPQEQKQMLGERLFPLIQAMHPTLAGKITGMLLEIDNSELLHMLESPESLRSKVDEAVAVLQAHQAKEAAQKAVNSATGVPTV
# CSC inhib: cancer stem cell inhibition. cancer stem cell-like cells viability, luminescence. inhibition, % at 7.5 µM. actives 1.1% (n = 300,000);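 active = mean at 75% or more and at least half the replicates too; tested in HMLE shEcad cells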;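 also: 0% = median of negative and 100% = median of positive control wells; the first replicate is given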
# MT1-MMP act inh: MT1-MMP (human) activation inhibition | GFP/RFP ratio change, % at 20 µM | HT1080 RFP-PRO-GFP cells, GFP/RFP ratio fluorescence, overnight; percent of plate control window, DMSO zero | actives 0.061% (n = 360,000);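 active = GFP/RFP ratio change of at least 30% with cell ATP level not reduced by more than half and red fluorescence within 50% of control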; also: strong numbers were not always called active
#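 Assay system: RFP-PRO-GFP reporter HT1080 cells; read-out basis: GFP/RFP fluorescence ratio; benchmarks: DMSO wells and RFP-L50D-GFP cells; doses: 20 µM single dose, 1% DMSO; schedule: overnight cell settling, then overnight compound exposure, 37 °C, 5% CO2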
# eIF4H inh retest: recorded beside eIF4H inh, whose call it bears; inhibition, %; compound at 20 µM; confirmation average;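 mean of two retest wells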
# PABP polyA inh retest: also measured in PABP polyA inh; calls as there; inhibition, %; compound at 20 µM; confirmation repeats;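 mean of two retest wells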
# MT1-MMP act inh RFP: second read-out of MT1-MMP act inh, no call of its own (marks repeat the call); RFP signal change, %; measured here: RFP expression control read;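 0 = vehicle wells; hits needed this value within 50% of zero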
# * marks the source's active call; other numbers are inactive results; i = inactive; x = not tested or not shown; + = active, no number; & = joins results of further samples; [ ] = another dose, or the depositor's remark.
SMILES,eIF4H inh,Rce1 inh,UUG fidelity,HIV Env fusion,PABP polyA inh,CSC inhib,MT1-MMP act inh,MT1-MMP act inh RFP,others
O=C(CSCc1cccc(F)c1)N1CCN(c2ccccc2)CC1,8,i,-6,x,-11,-7,0,-2,
NC(=O)COC(=O)c1ccccc1SCC(=O)NC1CCCCCCC1,x,i,-11,-6,x,-2,4,0,
O=C(O)c1ccc(NS(=O)(=O)c2cccc(C(=O)Nc3cccc(C(=O)O)c3)c2)cc1,7,i,-7,6,8,0,-1,2,
CCc1ccc(C(CNC(=O)c2ccc3c(=O)n(-c4ccccc4F)c(=S)[nH]c3c2)N(C)C)cc1 (configuration not stated),-4,i,x,8,3,15,2,-13,
CCOC(=O)C1(C)CCN1C(=O)c1ccccc1OC (configuration not stated),x,x,-18,-2,x,x,1,1,
O=C(Nc1ccc(F)cc1)NC1CCN(Cc2nnnn2Cc2ccco2)CC1,74*,i,9,61*,53*,x,5,5,
O=C1NC2(CCCCCC2)C(=O)N1Cc1cccc([N+](=O)[O-])c1,-6,i,-15,15,5,x,3,0,
O=C1C2CC=CCC2C(=O)N1Cc1nnc(-c2ccc(Cl)cc2)o1 (configuration not stated),-1,i,x,-3,2,8,-2,2,
O=[N+]([O-])c1ccc(COc2cccc(CN3CCCCC3)c2)cc1,x,x,-8,-11,x,x,2,3,
Cc1oc(S(=O)(=O)N(C)C)cc1C(=O)Nc1ccc(Cl)cc1,-2,i,x,-43,-5,-8,2,-14,

# Reprinted from the part before: 5 entries, then new ones.
SMILES,eIF4H inh,Rce1 inh,UUG fidelity,HIV Env fusion,PABP polyA inh,CSC inhib,MT1-MMP act inh,MT1-MMP act inh RFP,others
O=C(Nc1ccc(F)cc1)NC1CCN(Cc2nnnn2Cc2ccco2)CC1,74*,i,9,61*,53*,x,5,5,
O=C1NC2(CCCCCC2)C(=O)N1Cc1cccc([N+](=O)[O-])c1,-6,i,-15,15,5,x,3,0,
O=C1C2CC=CCC2C(=O)N1Cc1nnc(-c2ccc(Cl)cc2)o1 (configuration not stated),-1,i,x,-3,2,8,-2,2,
O=[N+]([O-])c1ccc(COc2cccc(CN3CCCCC3)c2)cc1,x,x,-8,-11,x,x,2,3,
Cc1oc(S(=O)(=O)N(C)C)cc1C(=O)Nc1ccc(Cl)cc1,-2,i,x,-43,-5,-8,2,-14,
COc1ccc(C(=O)N2CCN(c3ccc(C(C)=O)cc3)CC2)cc1S(=O)(=O)N1CCCC1,x,x,1,x,x,-1,2,-10,
CCCCOc1ccc(-c2nnc(-c3cc[n+](C)cc3)o2)cc1,-11,i,x,-33,5,45,1,1,
CSc1ccc(-c2nc(CN3CCCCC3c3cccnc3)c(C)o2)cc1 (configuration not stated),-6,i,x,2,-6,-5,-4,0,
Cc1nn(C2CCCCC2)c(N)c1-c1ccccc1,-8,i,-7,x,10,0,-5,0,
COc1ccccc1NS(=O)(=O)c1cccs1,-1,i,-4,x,-7,-6,-2,3,
CCCC(=O)N(Cc1cc(=O)[nH]c2ccccc12)c1ccc(C)cc1C,-1,i,8,0,1,-6,-2,-6,
CN(C)CCNC(=O)c1csc(Nc2cccc3ccccc23)n1,3,i,-5,5,3,42,4,4,
CCCCNC(=O)NC12CC3CC(CC(C3)C1)C2,-4,i,x,21,-10,x,2,2,
CCOC(=O)C(=O)/C(C#N)=C/Nc1ccc(F)cc1,-1,i,-11,x,0,14,-1,2,
O=C(CC1C(=O)NCCN1Cc1ccc(F)cc1)NCCN1CCCc2ccccc21 (configuration not stated),56,i,x,13,39,-14,-4,1,eIF4H inh retest=-6;PABP polyA inh retest=5
CC(C)c1ccc(-c2cc(C(=O)N3CCOCC3)c3cc(Br)ccc3n2)cc1,-17,i,-18,x,-17,37,1,-8,
COc1ccc(-c2csc(NC(=O)CSCC(=O)Nc3cc(C)on3)n2)c(OC)c1,x,i,x,-25,x,-13,2,-7,
CC(C)/C=C/CN1CCCC(N2CCN(c3cccc(Cl)c3)CC2)C1 (configuration not stated),3,i,-16,24,-2,5,4,6,
COc1ccc(S(=O)(=O)N(C)C)cc1NC(=O)c1ccc(OCC2CCCO2)cc1 (configuration not stated),x,x,8,0,x,x,0,10,
CC(C)c1ccc(/C=C2\SC(N3CCOCC3)=NC2=O)cc1,-10,i,-9,-16,1,-2,2,-2,
COCCN1C(=O)N[C@@H](c2cccc(C(F)(F)F)c2)[C@@H](C(=O)OC)[C@H]1C,x,i,2,-6,x,-3,2,1,
O=C(Nc1nc(-c2ccccn2)cs1)c1ccc([N+](=O)[O-])o1,22,+,-59,-46,14,47,3,-10,
COc1ccc(N(CC(=O)NCCc2cccc(C)c2)S(=O)(=O)c2c(C)noc2C)cc1,-11,i,-16,x,-2,26,3,-4,
O=C(NCc1ccccn1)c1cn(-c2ccccc2)nc1-c1ccc(Cl)cc1,-7,i,0,27,3,4,-4,-1,
CC(=O)c1ccc(NC(=S)N(Cc2ccccc2)C(C)C2CC2)cc1 (configuration not stated),8,i,x,19,-10,-5,-1,-3,
CCC(CC)C(=O)c1c[nH]c(C(=O)NCc2ccccn2)c1,10,i,-14,6,-17,-10,-5,-2,
O=C(CCc1ccccc1)NNC(=O)Nc1ccc(Br)cc1,-7,i,-10,-5,-6,4,2,3,
O=C1N/C(=C\c2ccc(O)cc2)C(O)=C1C=NCc1ccccc1,-4,i,-24,27,7,51,-3,-9,
COc1cc2c(cc1NC(=O)COC(=O)[C@@H](NC(=O)c1ccccc1)C(C)C)oc1ccccc12,-2,i,1,-1,23,8,-15,-18,
COc1ccc(Nc2ncnc3sccc23)c(OC)c1,-2,i,-12,-9,5,-3,1,-1,
O=C(NCCCN1CCCC1)c1ccc(Cn2c(=S)[nH]c3ccc(Br)cc3c2=O)cc1,-40,i,x,9,-7,-10,x,x,
O=C1COc2ccc(C(=O)C[n+]3cccc(O)c3)cc2N1,28,i,-1,1,0,-6,-11,1,
COc1ccc(Nc2cc(C)nc(N3CCN(C(=O)c4ccc5c(c4)OCO5)CC3)n2)cc1,x,i,-3,20,x,-7,2,-2,
O=C(COC(=O)c1cncc(Br)c1)NC1CCCCCC1,9,x,x,0,-1,-3,0,5,
CC(Cc1cccs1)NC(=S)Nc1ccc(Cl)c(Cl)c1 (configuration not stated),2,i,-23,-20,10,20,3,-2,
O=C(NCC1CCCO1)c1cccc(NC(=O)c2cccs2)c1 (configuration not stated),-4,i,x,5,-6,-11,2,4,
Cc1c(Cl)c(C(F)F)nn1CC(=O)NC1C(=O)N2C(C(=O)O)=C(CSc3nnnn3C)CSC12 (configuration not stated),-1,i,x,8,4,x,-4,2,
O=C(c1cc(-c2ccc(F)cc2)on1)N1CCCC1,-2,i,-36,-95,-2,-5,8,2,
C[C@H](CO)N1C[C@H](C)[C@@H](CN(C)S(=O)(=O)c2ccc(F)cc2)Oc2ccc(NC(=O)Cc3cn(C)c4ccccc34)cc2C1=O,x,x,-18&-13,-27[16.7 µM],x,-19,-3,1,
Cc1ccc(NC(=O)NC(=O)N(C(C)C)S(=O)(=O)c2ccc(C)cc2)cc1,2,i,-7,-10,0,8,3,2,
Cc1ccccc1NC(=O)C(=O)NC(C)CCc1ccccc1 (configuration not stated),-7,i,x,0,-8,x,-4,-4,
CCc1ccc(CN2CC(C(=O)O)CC2=O)cc1 (configuration not stated),0,i,-14,x,10,-1,x,x,
CC(C)(C)NC(=O)C(c1ccncc1)N(C(=O)Cn1nnc(-c2cccs2)n1)C1CCCCC1 (configuration not stated),4,i,2,-14,-8,20,2,3,
CC(=O)N1CCc2cc(S(=O)(=O)NCCC(=O)NC3CCCCCC3)ccc21,-1,i,0,-2,20,-9,3,-6,
COc1ccc(C)cc1NC(=O)CSc1nc(=O)n(CCCN2CCOCC2)c2c1CCCC2,x,i,-7,0,x,6,-1,-7,
CC(=O)C1C(c2ccc(OC(F)F)cc2)NC(=O)NC1(O)C(F)(F)F (configuration not stated),-4,i,-1,-15,-1,4,-4,3,
CC(C)C[C@H](NC(=O)OC(C)(C)C)C(=O)N[C@@H](CO)[C@H](O)[C@@H]1C[C@@H]1C(=O)N1CCCC1,6,i,3,-12,11,8,3,1,
COc1cc(CCC(=O)Nc2ccncc2Cl)cc(OC)c1OC,-6,i,-11,19,3,-6,1,-4,
CC(C)c1nccn1S(=O)(=O)c1cc([N+](=O)[O-])ccc1Cl,3,i,x,15,4,-3,4,1,
CCCCc1nc2n[nH]c(N)c2c2c1CCC2,0,x,-24,x,-1,1,9,4,
COc1ccc(N2C[C@H](CSC)[C@@H](CC(=O)Nc3ccc(Br)cc3)C2=O)cc1,x,x,9,-26,x,x,1,-6,
Cc1ccc(C)c(Sc2ccc(NC(=O)CCl)cc2)c1,2,i,x,8,-4,14,x,x,
C[C@@H]1CN([C@@H](C)CO)S(=O)(=O)c2ccc(Br)cc2O[C@H]1CN(C)C(=O)c1ccccc1,x,x,-2&1,6,x,x,-3,2,
CCN(CC)S(=O)(=O)c1ccc(C(=O)NCCN2C(=O)S/C(=C\c3cccnc3)C2=O)cc1,-12,i,x,21,6,-17,-2,-8,
CCCC(=O)NC(c1ccco1)c1cc(Cl)c2cccnc2c1O (configuration not stated),16,i,-21,x,2,-2,0,-3,
COc1ccc(C(=O)NC(C)CCc2ccccc2)c(O)c1 (configuration not stated),-8,i,11,-14,-2,7,1,-8,
COC(=O)/C=C/c1ccc(-n2cncn2)cc1,2,i,-14,-8,7,-26,2,8,

# 4 entries out of the list, arranged by molar mass, smallest number first.
SMILES,eIF4H inh,Rce1 inh,UUG fidelity,HIV Env fusion,PABP polyA inh,CSC inhib,MT1-MMP act inh,MT1-MMP act inh RFP,others
COC(=O)/C=C/c1ccc(-n2cncn2)cc1,2,i,-14,-8,7,-26,2,8,
Cc1ccc(C)c(Sc2ccc(NC(=O)CCl)cc2)c1,2,i,x,8,-4,14,x,x,
COc1cc(CCC(=O)Nc2ccncc2Cl)cc(OC)c1OC,-6,i,-11,19,3,-6,1,-4,
CC(C)C[C@H](NC(=O)OC(C)(C)C)C(=O)N[C@@H](CO)[C@H](O)[C@@H]1C[C@@H]1C(=O)N1CCCC1,6,i,3,-12,11,8,3,1,
